Arbovirus anti: blocks arbovirus infection. arbovirus infection cell-based antiviral screen. inhibition, % at 10 µM. 200,000 tested, 0.37% active;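 active means inhibition from about 30%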;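 further: bluetongue infection of BSR cells; cell survival read as ATP light after 72 h; 0% = infected wells without compound and 100% = uninfected wells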
RecA intein inh: Mtb RecA intein splicing inhibition. inhibition, %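 (about 9 µM by stock and volumes)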. P9WHJ3. cell-free RecA intein splicing, fluorescence. 290,000 tested, 0.75% active; in the data active means inhibition above about 30%;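 further: 0% = vehicle wells and 100% = reference inhibitor control wells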
Target sequence (P9WHJ3 whole entry, looked up): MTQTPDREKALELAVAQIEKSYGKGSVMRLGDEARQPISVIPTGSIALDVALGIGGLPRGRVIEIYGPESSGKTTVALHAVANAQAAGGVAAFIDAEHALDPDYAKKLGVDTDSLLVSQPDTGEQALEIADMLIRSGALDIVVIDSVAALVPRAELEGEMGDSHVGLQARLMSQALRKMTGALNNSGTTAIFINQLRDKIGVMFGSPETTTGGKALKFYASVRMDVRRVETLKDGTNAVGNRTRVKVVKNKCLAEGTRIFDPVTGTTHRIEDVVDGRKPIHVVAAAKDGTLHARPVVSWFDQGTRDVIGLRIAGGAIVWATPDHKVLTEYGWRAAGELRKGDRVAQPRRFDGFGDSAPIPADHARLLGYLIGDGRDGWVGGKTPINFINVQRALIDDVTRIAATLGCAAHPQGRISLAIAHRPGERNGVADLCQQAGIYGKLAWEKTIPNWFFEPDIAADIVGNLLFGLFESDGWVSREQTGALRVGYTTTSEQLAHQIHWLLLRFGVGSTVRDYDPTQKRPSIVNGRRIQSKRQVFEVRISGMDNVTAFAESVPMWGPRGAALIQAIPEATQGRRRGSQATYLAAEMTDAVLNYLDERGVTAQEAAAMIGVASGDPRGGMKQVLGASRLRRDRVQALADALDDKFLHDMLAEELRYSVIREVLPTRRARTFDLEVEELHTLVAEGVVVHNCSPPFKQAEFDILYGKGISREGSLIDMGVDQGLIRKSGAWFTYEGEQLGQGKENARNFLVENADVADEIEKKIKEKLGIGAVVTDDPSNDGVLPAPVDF
Mtb betalactam: beta-lactam sensitization of Mtb H37Rv. M. tuberculosis H37Rv growth with meropenem, percent inhibition; hits of this screen are not shown here. inhibition, % at 25 µM. 330,000 tested, 0.27% active. AID 434955;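 active means about 74% or more and at least 40 points above the plate without the antibiotic, then above 30% in a dose series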;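 further: growth measured after seven days incubation then overnight dye step; 0% = bacteria only wells and 100% = bacteria with antibiotic; twin plates without the antibiotic show which effects depend on it; some results filed as inactive read as strong as hits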
YopH inh: blocks Yersinia enterocolitica YopH tyrosine phosphatase. fluorescence Ex485/Em525. inhibition, %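 (about 10 µM by stock and volumes)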. 140,000 tested, 0.16% active. AID 898;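 active means inhibition of 50% or more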;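 further: controls were vehicle for no effect and minimum signal wells for full effect; inactives centre near -20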
Mtb H37Rv: M. tuberculosis H37Rv growth inhibitors, H37Rv strain (AID 1626); M. tuberculosis H37Rv growth inhibition; higher % means a stronger effect; inhibition, % at 10 µM; hits with a dose series show IC50 in µM; 220,000 tested, 0.95% active;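 active means confirmed in a dose series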;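 further: bacteria incubated seven days before Alamar blue readout; 0% = bacteria only wells and 100% = bacteria with antibiotic wells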
Arbovirus anti repeat: also measured in Arbovirus anti; calls as there; inhibition, %; measured here: 10K subset replicate screen; many hits read low in the repeat;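 first of two repeat runs on a subset; 0% = infected and 100% = uninfected wells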
* marks the source's active call; other numbers are inactive results; x = no result given.

SMILES	Arbovirus anti	RecA intein inh	Mtb betalactam	YopH inh	Mtb H37Rv	others
CCOc1ccc(S(=O)(=O)NCc2ccc(F)cc2)c2cccnc12	1	0.9	-14	-41	-7%
CCOc1ccc(C(=O)NC(C(=O)NCc2ccccn2)C(C)C)cc1 (configuration not stated)	3	2.8	1	-13	x
Cc1cccc(C)c1OCc1cc(C(=O)N(Cc2nccn2C)C(C)C)no1	x	-2.8	-7	x	x
O=C(COC(=O)/C=C/c1ccc(S(=O)(=O)N2CCCCCC2)cc1)NCc1ccccc1Cl	5	-2.0	46	-44	1%
COc1ccc(S(=O)(=O)NCC(c2ccco2)N2CCc3ccccc3C2)cc1 (configuration not stated)	x	6.0	1	x	x
CC(C)=C1SC(N2CCN(c3cccc(C)c3)CC2)=NC1=O	-11	3.4	4	-4	9%
COc1ccc(NC(C)=O)cc1S(=O)(=O)N1CCN(C/C=C/c2ccccc2)CC1	6	-1.9	-4	x	1%
CCN1C(=O)NC2C1N(S(C)(=O)=O)CCN2S(C)(=O)=O (configuration not stated)	11	-1.0	-1	-39	-2%	Arbovirus anti repeat=-2
OC1(c2cccs2)CN(c2ccc(Cl)cc2)C2=[N+]1CCCS2 (configuration not stated)	-16	-3.1	-6	x	5%
CN(c1ccccc1)S(=O)(=O)c1cc(C(=O)OCC(N)=O)ccc1Cl	3	-0.5	-7	x	1%
CO/C(N)=C(\C#N)N=Cc1ccccc1Cl	1	2.2	-6	x	4%
O=C(Nc1ccccc1)Nc1ccc(Cl)c([N+](=O)[O-])c1	-43	1.2	11	-26	12%
NC(=O)c1ccccc1NC(=O)CCCCCn1nnc2ccccc2c1=O	x	2.0	-8	x	x
CCCOc1ccccc1C(=O)N(Cc1ccc(C)o1)C1CCS(=O)(=O)C1 (configuration not stated)	x	-0.5	8	x	x
CC(=O)c1c(C(C)=O)c(C)n(Cc2ccc3c(c2)OCO3)c1C	9	-1.0	11	-30	-7%
CC(C)C(=O)Nc1ccc(C(=O)NNC(=O)CCCOc2ccc(Cl)cc2Cl)cc1	-5	1.9	6	-23	0%
COc1ccccc1NC(=O)N1CCN(c2ccc3nncn3n2)CC1	1	-4.2	-3	x	x	Arbovirus anti repeat=4
Cc1ccc(N(Cc2ccccc2)C(=O)CN2C(=O)NC3(CCCC3)C2=O)cc1	x	-1.4	-13	x	x
CCCCOC(=O)Nc1nnc(CC)s1	11	1.9	9	-28	-15%
CCOc1ccc(-c2nc3c(s2)CCc2onc(-c4ccc(OC)cc4)c2-3)cc1	x	0.7	-6	x	-4%

Next section (3 carried over from the part before).
SMILES	Arbovirus anti	RecA intein inh	Mtb betalactam	YopH inh	Mtb H37Rv	others
Cc1ccc(N(Cc2ccccc2)C(=O)CN2C(=O)NC3(CCCC3)C2=O)cc1	x	-1.4	-13	x	x
CCCCOC(=O)Nc1nnc(CC)s1	11	1.9	9	-28	-15%
CCOc1ccc(-c2nc3c(s2)CCc2onc(-c4ccc(OC)cc4)c2-3)cc1	x	0.7	-6	x	-4%
COCCCNC(=S)N(Cc1ccccc1)Cc1ccc(F)cc1	-3	3.7	0	x	4%
COc1ccc2cc(CCNC(=O)C(C)(C)C)c(=O)[nH]c2c1	-1	-0.3	2	-13	0%
CCC1CCCCN1C(=O)COc1ccc(N(C)S(=O)(=O)c2ccc(C)cc2)cc1 (configuration not stated)	x	7.1	-15	x	x
CN(C)c1cccc(N(C)C)c1CNC(=O)C(C)(C)C	x	0.9	-1	x	4%
Cc1ccc2oc(=O)c(/C=C(\O)c3ccco3)nc2c1	x	-7.1	59	x	-5%
CCCCc1ccc(NC(=S)N2CCCC2)cc1	x	-0.4	4	x	x
NC(=O)c1ccc(NC(=O)CSc2cn(CC(=O)N3CCOCC3)c3ccccc23)cc1	x	-2.8	-3	x	x
CCOC(=O)C(=O)N1CCC(C(=O)OC)CC1	8	-1.8	-4	x	2%
Cn1ncc2c(=O)[nH]cnc21	14	-4.6	-7	x	-2%
CC(C(=O)N1CCN(c2ccccc2)CC1)N1C(=O)C2CC=CCC2C1=O (configuration not stated)	0	-2.0	4	-29	-2%
Cc1nn(Cc2ccccc2Cl)c2sc(C(=O)NC(C)(C)C)cc12	-2	-3.3	32	-1	7%
Cc1cc(=O)oc2cc(OCC(=O)NC3CC(C)(C)NC(C)(C)C3)c(Cl)cc12	x	-2.3	-5	x	x
CCCCC1=CC2=CC(=O)C(C)(OC(=O)CC)C(=O)C2=CN1C(CO)CO (configuration not stated)	x	5.3	-7	x	-1%
O=C(Cn1ccc2cc(S(=O)(=O)N3CCCC3)ccc21)NCc1ccccc1	x	-33	-5	x	x
COc1ccccc1-n1nnnc1SCc1cc2c(cc1Br)OCO2	2	0.8	-8	-33	-23%
CCOC(=O)c1c(NC(=O)C2=C(C)NC(=S)NC2c2ccc(F)cc2F)sc(C)c1C (configuration not stated)	0	-2.7	61	-7	6%
Cc1ccc(S(C)=O)cc1-n1c(=O)n(Cc2ccccc2)c(=O)c2[nH]cnc21 (configuration not stated)	x	1.8	-3	x	x
CC(CCc1ccccc1)NC(=O)C1CCC1 (configuration not stated)	x	-1.4	-2	x	x
CC(=O)Nc1ccc(S(=O)(=O)NCCC(=O)OCc2csc(CC(=O)Nc3ccccc3C)n2)cc1	x	-2.1	1	x	x
Cc1ccc(S(=O)(=O)c2nc(Nc3ccccc3N3CCOCC3)sc2Cl)cc1	-3	-0.2	-6	-26	12%
CCCCn1c(O)c(C=NCCCn2ccnc2)c(=O)[nH]c1=O	1	-2.8	-5	-11	-5%
Cc1onc2c(=O)n(-c3ccccc3)nc(-c3ccccc3)c12	x	1.1	0	x	9%
CCOC(=O)N1CCC(NC(=O)c2cc(C(=O)NCc3ccc(F)cc3)ccc2CO)CC1	3	-1.7	-10	-31	1%
CCOc1ccc(S(=O)(=O)NCc2ccc3c(c2)OCO3)cc1	x	8.7	4	x	x
CCCN1C(=O)/C(=C/c2nc3ccccc3c(=O)[nH]2)c2ccccc21	9	5.6	22	-17	43%
Cc1cc(OC(C)C)nc(-c2ccccc2O)n1	2	0.8	-3	-21	-7%
CCOc1cc(C(=O)Nc2ccc(F)cc2)cc(Br)c1OC	-1	1.7	4	-28	9%
O=C(O)c1ccc2c(c1)C1C(Cl)C(Sc3ccccc3[N+](=O)[O-])CC1C(c1cccc([N+](=O)[O-])c1)N2 (configuration not stated)	30	x	x	x	2%
COc1ccc(NC(=O)CSc2nc(-c3ccco3)nc3cc(=O)[nH]n23)cc1Cl	x	-15	-1	x	x
O=C(NCCc1c[nH]c2ccccc12)c1cncc(Br)c1	3	0.4	-11	x	10%
CCO[C@@H]1OC(C(=O)O)=C[C@H](c2ccc(C(F)(F)F)cc2)[C@H]1CCCO	0	0.7	-6	x	-5%
O=C(NC1CCN(S(=O)(=O)c2ccc(Cl)cc2)CC1)c1cccnc1	x	-4.0	0	x	x
O=C(O)c1ccc(N/N=C/c2cn(Cc3ccccc3F)c3ccccc23)cc1	x	6.0	11	x	8%
COCCCNC(=O)CCn1c(=O)c2ccccc2n(Cc2cccc([N+](=O)[O-])c2)c1=O	-4	6.1	-4	x	-9%
Cc1cccc(NC(=O)CCN2CC(C)CC(C)C2)c1 (configuration not stated)	x	-1.4	3	x	x
CC(=O)c1ccc(N2CCN(C(=O)c3cccc(Oc4ccccc4)c3)CC2)cc1	2	8.2	8	x	13%
N#Cc1nc(Cc2cccc3ccccc23)oc1NCCCn1ccnc1	-4	-2.7	4	-37	-1%
CCOc1ccc(-c2[nH]nc3c2C(c2cccnc2)C(C#N)=C(N)O3)cc1 (configuration not stated)	7	x	-2	-58	-10%
COc1cccc(CN2CCNC(=O)C2CC(=O)NCc2cn3ccccc3n2)c1OC (configuration not stated)	-1	-1.7	-19	x	2%
O=C(NC1CCCC1)c1cc2ccccc2o1	x	2.2	13	x	x
CC(C)Cn1c(N)c(C(=O)COC(=O)c2ccc([N+](=O)[O-])o2)c(=O)n(C)c1=O	7	3.6	100	x	21%
Cc1ccc(NC(=O)COc2ncnc3cc([N+](=O)[O-])ccc23)cc1S(=O)(=O)N1CCOCC1	x	x	-6	x	5%
O=C(COC(=O)c1cc(S(=O)(=O)N2CCOCC2)ccc1O)NCC1CCCO1 (configuration not stated)	8	-0.7	-7	10	0%
O=C(Cc1coc2cc3c(cc12)CCC3)OCC(=O)N1CCCC1=O	19	x	2	x	-3%
CCCCn1c(O)c(C(CC)=NCc2cccnc2)c(=O)[nH]c1=O	-5	1.3	-3	-15	0%
CCCCc1c(O)nc(SCC(=O)c2ccccc2)n(-c2ccccc2OC)c1=O	x	4.6	-3	x	-2%
Cc1ccc(NC(=O)c2ccc(OCC3CCCO3)cc2)c(C)c1 (configuration not stated)	11	-4.6	7	6	6%
COC(=O)[C@@H]1Cc2c([nH]c3ccccc23)C2CCC(=O)N21 (some centres not stated)	x	-1.9	1	x	x
O=c1oc(Nc2cccc(F)c2)nc2ccccc12	3	0.6	6	-30	-16%
COc1ccc(Cl)cc1Nc1nc(N)nc(C(F)(F)F)n1	2	-5.1	x	-6	4%
(further entries)
SMILES	Arbovirus anti	RecA intein inh	Mtb betalactam	YopH inh	Mtb H37Rv	others
C[C@H]1CC[C@H]2C(=O)N3[C@H](c4cccc(N5CCCC5=O)c4)[C@@H](C)CC[C@H]3C(=O)N2[C@@H]1c1cccc(N2CCCC2=O)c1	9	-0.5	-21	-25	x
COc1ccc(-c2cn3c4c(sc3n2)CCCC4)cc1	-10	3.0	42	-14	3%
COc1ccc(C(=O)COC(=O)C2CCN(S(=O)(=O)c3cccc4cccnc34)CC2)cc1	-4	-6.2	-5	-36	7%
COC(=O)CSc1nnc(CNC(=O)c2ccc(S(=O)(=O)N(C)C)cc2)n1C	5	-1.0	4	x	2%
COC(=O)c1sc(NC(=O)c2c(-c3ccccc3)noc2C)nc1C	x	2.6	-8	x	x
COc1ccc2c(c1)OC(c1ccccc1)(C(F)(F)F)NC2=O (configuration not stated)	2	-0.4	3	-59	2%
c1csc(-c2nn3c(Cn4cnc5ccccc54)nnc3s2)c1	11	2.1	-1	-74	7%
Cc1cc(S(=O)(=O)Nc2ccc(C(=O)NCC(c3ccco3)N3CCCCC3)cc2)ccc1F (configuration not stated)	x	-1.0	-3	x	x
S=c1[nH]nc(-c2cc(-c3ccccc3)n[nH]2)n1/N=C/c1c(Cl)cccc1Cl	x	10	-4	x	-14%
O=C(CN1CCOCC1)n1c2ccccc2c2ccccc21	0	2.4	-4	-39	0%
CCCCNC(=O)NS(=O)(=O)c1cnccc1Sc1ccc(Cl)cc1	15	x	-13	-152	-12%
O=C(NNC(=O)c1cccc(Br)c1)Nc1ccc(Cl)cc1	1	2.5	-3	x	-9%
O=C(NCCC(c1ccccc1)c1ccccc1)c1cnc2sccn2c1=O	11	-0.3	-5	x	15%
CN(C)C(=O)c1cn(-c2ccccc2)c(=O)c2ccccc12	2	-0.2	-5	-15	-6%
Nc1cc(Oc2cccnc2)cc([N+](=O)[O-])c1	8	-0.2	x	x	8%
Cc1csc(NC(=O)c2ccc(S(=O)(=O)N(C)c3ccccc3)cc2)n1	-5	3.2	-4	5	-1%
CS(=O)(=O)N1c2ccccc2[C@@]2(Br)C[C@H]3C(=O)N[C@@H](Cc4ccccc4)C(=O)N3[C@@H]12	x	2.9	-12	x	-5%
CCOC(=O)c1cc(-c2csc(-c3ccc(C(F)(F)F)cc3)n2)on1	x	0.9	100	x	<0.2µM*
CCN1CCN(C(=S)c2ccc(OC)cc2)CC1	4	0.4	-10	x	5%

Of the compounds above, eleven contain an NH in an aromatic ring:
SMILES	Arbovirus anti	RecA intein inh	Mtb betalactam	YopH inh	Mtb H37Rv	others
COc1ccc2cc(CCNC(=O)C(C)(C)C)c(=O)[nH]c2c1	-1	-0.3	2	-13	0%
Cn1ncc2c(=O)[nH]cnc21	14	-4.6	-7	x	-2%
Cc1ccc(S(C)=O)cc1-n1c(=O)n(Cc2ccccc2)c(=O)c2[nH]cnc21 (configuration not stated)	x	1.8	-3	x	x
CCCCn1c(O)c(C=NCCCn2ccnc2)c(=O)[nH]c1=O	1	-2.8	-5	-11	-5%
CCCN1C(=O)/C(=C/c2nc3ccccc3c(=O)[nH]2)c2ccccc21	9	5.6	22	-17	43%
COc1ccc(NC(=O)CSc2nc(-c3ccco3)nc3cc(=O)[nH]n23)cc1Cl	x	-15	-1	x	x
O=C(NCCc1c[nH]c2ccccc12)c1cncc(Br)c1	3	0.4	-11	x	10%
CCOc1ccc(-c2[nH]nc3c2C(c2cccnc2)C(C#N)=C(N)O3)cc1 (configuration not stated)	7	x	-2	-58	-10%
CCCCn1c(O)c(C(CC)=NCc2cccnc2)c(=O)[nH]c1=O	-5	1.3	-3	-15	0%
COC(=O)[C@@H]1Cc2c([nH]c3ccccc23)C2CCC(=O)N21 (some centres not stated)	x	-1.9	1	x	x
S=c1[nH]nc(-c2cc(-c3ccccc3)n[nH]2)n1/N=C/c1c(Cl)cccc1Cl	x	10	-4	x	-14%

Assay outcomes deposited in PubChem by several laboratories.

These rows are one share of the data, so the mix of outcomes need not match the whole.
